Screening results: PubChem BioAssay, National Center for Advancing Translational Sciences (NCATS)
LT uptake inh: blocks cellular internalization of anthrax lethal toxin. Cells, anthrax lethal toxin internalization, FRET ratio (460/530). Potency, µM (highest dose often 40 µM), for the others: at the highest dose activity change, negative = inhibition, actives largely listed as inhibitors. actives 0.67% (n = 70,000). AID 912; active = well fitted falling ratio curve with the 530 nm signal flat; inconclusive = other ratio curves, or a change in one channel alone; inactive = flat curves in the ratio and both channels; the % refers to the ratio; further: on the % scale 0 is the no-effect control and ±100 the full control effect; nearly all actives have a fitted effect of over 50% in size; tested in ME-180 cells; beta-lactamase reporter
Prx2 Sm inh: blocks S. mansoni peroxiredoxin 2 enzymatic activity | Potency, µM | actives 0.07% (n = 65,000) | AID 448 | S. mansoni Prx2 activity coupled to TGR/GSH (TGR is thioredoxin glutathione reductase), NADPH fluorescence loss, qHTS; some inactives read as strong as hits; active means full or partial inhibition curve with a strong effect at the top dose; inconclusive means weaker partial or single-point curve; inactive means no accepted curve; further: series up to 57 µM; many of its hits are not listed in these tables
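Coupled assay in which S. mansoni TGR passes NADPH reducing equivalents via glutathione to Prx2, which reduces H2O2. Compounds were preincubated 15 min at room temperature with 25 nM TGR/50 nM Prx2 mix. Kinetic NADPH fluorescence loss (ex 365/em 450 nm) was monitored.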
The depositor's hits bear a star; [ ] = another dose, or the depositor's remark. Potency means the concentration at half of the fitted maximal effect.

Start of the data: the first two entries as a preview:
What do the screens show for `CC(C)(C)NC(=O)CSc1ncnc2c1nnn2Cc1ccccc1Cl`?
LT uptake inh: -9%; Prx2 Sm inh: >57

Results for C=CCc1ccc(OCCCCCN2CCOCC2)c(OC)c1 ?
LT uptake inh: -10%; Prx2 Sm inh: >57

The list itself, from the start:
What do the screens show for `CC(C)(C)NC(=O)CSc1ncnc2c1nnn2Cc1ccccc1Cl`?
LT uptake inh: -9%; Prx2 Sm inh: >57

Results for C=CCc1ccc(OCCCCCN2CCOCC2)c(OC)c1 ?
LT uptake inh: -10%; Prx2 Sm inh: >57

Results for COC(=O)c1c(S(N)(=O)=O)c2ccccc2n1C ?
LT uptake inh: -18%

Results for CCOC(=O)N1CCN(C(=O)CSCC(=O)Nc2nc(-c3ccccc3)cs2)CC1 ?
LT uptake inh: -21%; Prx2 Sm inh: >57

How did CN(C)c1ccc(C(=O)OCC(=O)c2cccs2)cc1 do in these assays?
LT uptake inh: -14%; Prx2 Sm inh: >57

Results for CNC(=O)[C@H](C)[C@H]1C[C@]1(C)[C@H](NC(=O)OCc1ccccc1)c1ccccc1 ?
LT uptake inh: inconclusive; Prx2 Sm inh: >57

How did CSCC[C@H](NC(=O)CCn1nnc2ccccc2c1=O)C(=O)O do in these assays?
LT uptake inh: 1%; Prx2 Sm inh: >57

How did N#Cc1ccccc1Cn1c(=O)n(-c2ccc(CC(=O)NCc3ccco3)cc2)c(=O)c2sccc21 do in these assays?
LT uptake inh: inconclusive; Prx2 Sm inh: >57

How did O=C(NCc1cccnc1)C1CCN(C(=O)c2ccc(Cl)cc2Cl)CC1 do in these assays?
LT uptake inh: 8%; Prx2 Sm inh: >57

Results for Cc1ccccc1N1CCN(C(=O)C2CCCCC2)CC1 ?
LT uptake inh: -4%; Prx2 Sm inh: >57

What do the screens show for `Cc1cc(=O)oc2c1ccc1oc(/C(=N/O)c3ccccc3)c(C)c12`?
LT uptake inh: 10µM*

What do the screens show for `CS(=O)(=O)Nc1cccc(-c2nc(N3CCNCC3)c3ccccc3n2)c1`?
LT uptake inh: -20%; Prx2 Sm inh: >57

How did O=C(NCN1C(=O)C2C3C=CC(C3)C2C1=O)Nc1ccccn1 (configuration not stated) do in these assays?
LT uptake inh: -5%; Prx2 Sm inh: >57

What do the screens show for `CCCCSc1nc2c(c(=O)n1CC)SC(C)C2` (configuration not stated)?
LT uptake inh: -13%; Prx2 Sm inh: >57

What do the screens show for `FC(F)(F)c1nc(N2CCN(c3ccccc3)CC2)nc2c1CCCCC2`?
LT uptake inh: -2%; Prx2 Sm inh: >57

How did CC1CC(C)CN(C(=O)CSc2nnc(-c3ccc(Cl)s3)o2)C1 (configuration not stated) do in these assays?
LT uptake inh: -20%; Prx2 Sm inh: >57

Results for N[C@H](Cc1c[nH]c2ccccc12)P(=O)(O)O ?
LT uptake inh: 3%[8 µM]; Prx2 Sm inh: >57

Results for COc1cc(C(=O)Oc2ccccc2N)cc(OC)c1OC ?
LT uptake inh: -7%

Results for Cc1ccc(Nc2ncccc2C(=O)O)cc1C ?
LT uptake inh: -6%; Prx2 Sm inh: >57

How did ClC/C=C/CCl do in these assays?
LT uptake inh: -14%

Results for CN(c1ccccc1C(=O)NCC1CCCO1)S(C)(=O)=O (configuration not stated) ?
LT uptake inh: -17%; Prx2 Sm inh: >57

How did COc1ccc(NC(=O)Cn2nnc(-c3ccccc3NC(=O)c3ccco3)n2)cc1 do in these assays?
LT uptake inh: -1%; Prx2 Sm inh: >57

What do the screens show for `CCOC(=O)c1c(NC(=O)C2CCN(S(=O)(=O)c3cccs3)CC2)sc(C)c1C`?
LT uptake inh: -2%; Prx2 Sm inh: >57

What do the screens show for `O=C(NCc1ccco1)Oc1ccccc1`?
LT uptake inh: 3%; Prx2 Sm inh: >57

How did C[C@@H]1C(=O)O[C@@H]2C[C@@]34[C@H]5C[C@@H](C(C)(C)C)[C@@]36[C@@H](OC(=O)[C@@H]6O)O[C@]4(C(=O)O5)[C@@]12O do in these assays?
LT uptake inh: inconclusive; Prx2 Sm inh: >57

What do the screens show for `CCOC(=O)c1nnc(-c2ccccc2)o1`?
LT uptake inh: -5%; Prx2 Sm inh: >57

Results for CC(=O)N1CCc2cc(S(=O)(=O)NCCC(=O)N3CCN(Cc4ccccc4)CC3)ccc21 ?
LT uptake inh: 13%; Prx2 Sm inh: >57

What do the screens show for `CC1Cc2cc(/C(O)=C3/C(=O)C(=O)N(CC4CCCO4)C3c3ccco3)ccc2O1` (configuration not stated)?
LT uptake inh: -17%; Prx2 Sm inh: >57

Results for COc1cccc(C(=O)/C=C/Nc2cc(C)ccc2O)c1 ?
LT uptake inh: -13%; Prx2 Sm inh: >57

Results for COc1cccc(C(C#N)N2CCCCC2)c1O (configuration not stated) ?
LT uptake inh: -11%; Prx2 Sm inh: >57

How did CCOCC(=O)Nc1ccc2c(c1)OCCO2 do in these assays?
LT uptake inh: -5%; Prx2 Sm inh: >57

How did CCCN(CCO)Cc1cccc(Cl)c1 do in these assays?
LT uptake inh: -1%; Prx2 Sm inh: >57

Results for CCNC(=O)NC(=O)C(C)SCc1ccccc1C (configuration not stated) ?
LT uptake inh: -12%; Prx2 Sm inh: >57

How did COc1cc(NS(=O)(=O)c2ccc(NC(=O)C3CCCO3)cc2)nc(OC)n1 (configuration not stated) do in these assays?
LT uptake inh: 2%; Prx2 Sm inh: >57

Results for O=C(N1CCOCC1)C12CCC3CC(CC(C3)C1)C2 ?
LT uptake inh: -1%; Prx2 Sm inh: >57

Results for CCc1ccccc1-n1c(-c2ccncc2)n[nH]c1=S ?
LT uptake inh: 3%; Prx2 Sm inh: >57

How did CCCn1c(=O)c(C(=O)Nc2ccccc2C(=O)OCC)c(O)c2ccccc21 do in these assays?
LT uptake inh: -12%; Prx2 Sm inh: >57

What do the screens show for `Cn1nnnc1SCCOc1ccc(C#N)cc1`?
LT uptake inh: 10%; Prx2 Sm inh: >57

What do the screens show for `O=C(CC(c1ccccc1)c1ccccc1)NCCO`?
LT uptake inh: -9%

What do the screens show for `COc1cc(C2CC(=O)Nc3ccccc3S2)cc(OC)c1OC` (configuration not stated)?
LT uptake inh: -1%; Prx2 Sm inh: >57

Part of the list above in order of number of heavy atoms, low to high.
How did CCOCC(=O)Nc1ccc2c(c1)OCCO2 do in these assays?
LT uptake inh: -5%; Prx2 Sm inh: >57

Results for O=C(N1CCOCC1)C12CCC3CC(CC(C3)C1)C2 ?
LT uptake inh: -1%; Prx2 Sm inh: >57

How did COc1cc(NS(=O)(=O)c2ccc(NC(=O)C3CCCO3)cc2)nc(OC)n1 (configuration not stated) do in these assays?
LT uptake inh: 2%; Prx2 Sm inh: >57

The listing continues:
Results for O=C(Nc1ccc(-c2noc(COc3ccccc3Cl)n2)cc1)c1ccco1 ?
LT uptake inh: -7%; Prx2 Sm inh: >57

How did O=C1CCCC2=C1C(c1cccs1)n1nc(SCc3ccccc3)nc1N2 (configuration not stated) do in these assays?
LT uptake inh: inconclusive; Prx2 Sm inh: >57

Results for Cn1cccc1C(=O)N1CCC2(CC1)CCN(c1ncccn1)CC2 ?
LT uptake inh: inconclusive; Prx2 Sm inh: >57

How did N[C@H](COP(=O)(O)O)C(=O)O do in these assays?
LT uptake inh: -8%; Prx2 Sm inh: >57

Results for CC(C)c1ccccc1N=C1SCCN1C1CCS(=O)(=O)C1 (configuration not stated) ?
LT uptake inh: -13%; Prx2 Sm inh: >57

Results for Cc1c(C(=O)Nc2cnccn2)oc2ccccc12 ?
LT uptake inh: -8%; Prx2 Sm inh: >57

How did COc1ccccc1C(=O)NCCc1nc2ccccc2[nH]1 do in these assays?
Prx2 Sm inh: >57

Results for Cc1cc(NC(=O)COC(=O)c2c(C)nn(Cc3ccccc3Cl)c2Cl)no1 ?
LT uptake inh: -13%; Prx2 Sm inh: >57

What do the screens show for `COc1ccc(C2C(C(=O)c3cccs3)=C(O)C(=O)N2c2nnc(C)s2)cc1OC` (configuration not stated)?
LT uptake inh: 13%

How did Cn1c(=O)c2c(nc(CN3CCc4ccccc4C3)n2CC(=O)c2ccccc2)n(C)c1=O do in these assays?
LT uptake inh: inconclusive; Prx2 Sm inh: >57

Three records drawn at random from the list so far, as already listed:
How did Cn1c(=O)c2c(nc(CN3CCc4ccccc4C3)n2CC(=O)c2ccccc2)n(C)c1=O do in these assays?
LT uptake inh: inconclusive; Prx2 Sm inh: >57

Results for CC(C)c1ccccc1N=C1SCCN1C1CCS(=O)(=O)C1 (configuration not stated) ?
LT uptake inh: -13%; Prx2 Sm inh: >57

Results for Cc1c(C(=O)Nc2cnccn2)oc2ccccc12 ?
LT uptake inh: -8%; Prx2 Sm inh: >57

Other entries
What do the screens show for `CC(C)CC(NC(=O)C1CCC(C)CC1)C(=O)Nc1cccnc1` (configuration not stated)?
LT uptake inh: 24%; Prx2 Sm inh: >57

How did CC(=O)Nc1nc2c(c3c1c(=O)oc1ccccc13)CCCCC2 do in these assays?
LT uptake inh: -4%; Prx2 Sm inh: >57

How did O=C(NC1CCCCC1)N1CCCC(c2nc3ccccc3[nH]2)C1 (configuration not stated) do in these assays?
LT uptake inh: -6%; Prx2 Sm inh: >57

What do the screens show for `Cc1ccc(Cn2ncc3c(N4CCCC4)ncnc32)cc1`?
LT uptake inh: 10%; Prx2 Sm inh: >57

How did COc1ccccc1C(=O)n1nc(-c2ccco2)nc1N do in these assays?
LT uptake inh: -16%; Prx2 Sm inh: >57

What do the screens show for `COc1ccc(CCNC(=O)CSc2nnc(-c3cccc(F)c3)o2)cc1OC`?
LT uptake inh: -9%; Prx2 Sm inh: >57

How did c1ccc(Cn2nnc3c(N4CCc5ccccc5C4)ncnc32)cc1 do in these assays?
LT uptake inh: -12%; Prx2 Sm inh: >57

How did COc1ccc(CNC(=O)C2CCNCC2)cc1 do in these assays?
LT uptake inh: inconclusive; Prx2 Sm inh: >57

Results for Cc1nnc(SCC(=O)NCCN2C(=O)CSC2=O)s1 ?
LT uptake inh: -4%; Prx2 Sm inh: >57

Results for Cn1cccc1Cc1nnc(SCC(=O)N2CCN(c3ccccc3)CC2)n1-c1ccc(F)cc1 ?
LT uptake inh: -8%; Prx2 Sm inh: >57

How did CCOC(=O)c1c(C)[nH]c(C)c1-c1ccccc1OC do in these assays?
LT uptake inh: 18%

Results for CC(=O)NC1=NC(=O)/C(=C/N2CCOCC2)S1 ?
LT uptake inh: 11%; Prx2 Sm inh: >57

Results for CCSc1nc2ccccc2n1CC(N)=O ?
LT uptake inh: -2%; Prx2 Sm inh: >57

Results for Nc1ccccc1S[C@@H](C[N+](=O)[O-])c1ccc2c(c1)OCO2 ?
LT uptake inh: inconclusive; Prx2 Sm inh: >57

How did Cc1ccc(-c2nnc(SCC(=O)Nc3ccc4c(c3)OCCO4)n2N)cc1 do in these assays?
LT uptake inh: -3%; Prx2 Sm inh: >57

Results for CC(=O)c1cccc(NC(=O)N2CCCC2C(=O)NCc2ccc(C)cc2)c1 (configuration not stated) ?
LT uptake inh: 21%; Prx2 Sm inh: >57

How did Cc1nnc2ccc(N3CCN(C)CC3)nn12 do in these assays?
LT uptake inh: 0%

How did C=CC[C@@H]1C=C[C@H](O/N=C(\C)CCN2CCCc3nc(C)c(C)cc32)[C@H](CO)O1 do in these assays?
LT uptake inh: inconclusive

Results for O=C(Nc1cccnc1)c1cnc2ccccc2n1 ?
LT uptake inh: 6%; Prx2 Sm inh: >57

Results for CCN1CCN(S(=O)(=O)c2ccc(OC)c(Br)c2)CC1 ?
Prx2 Sm inh: >57

What do the screens show for `O=C(Cc1cccs1)N1CCC2(CC1)OCCO2`?
LT uptake inh: -9%; Prx2 Sm inh: >57

How did Oc1ccccc1-c1nnc(COc2ccc(Cl)cc2Cl)o1 do in these assays?
LT uptake inh: -9%; Prx2 Sm inh: >57

How did CCCCn1c(SCC(=O)NC(=O)NCc2ccco2)nc2cc(S(N)(=O)=O)ccc21 do in these assays?
LT uptake inh: -5%; Prx2 Sm inh: >57

How did CC1CCCCC1N=CC1=C(O)CC(C)(C)CC1=O (configuration not stated) do in these assays?
LT uptake inh: -2%

Results for COc1ccccc1Nc1nnc(SCC(=O)N2CCCC2=O)s1 ?
LT uptake inh: 2%; Prx2 Sm inh: >57

How did CO/N=C(/C)CCC(=O)OC[C@@H]1O[C@H](C#Cc2ccccc2)C=C[C@@H]1Oc1ccc(C)cc1 do in these assays?
LT uptake inh: -12%[8 µM]

How did Cn1c(=O)c(CCc2ccccc2)nc2cnc(Oc3ccccc3)nc21 do in these assays?
LT uptake inh: inconclusive; Prx2 Sm inh: >57

How did NC(=O)CC[C@@H](N)C(=O)O do in these assays?
LT uptake inh: 5%; Prx2 Sm inh: >57

How did CCn1c(-c2ccc(OC)c(OC)c2)n[nH]c1=S do in these assays?
LT uptake inh: 5%; Prx2 Sm inh: >57

Results for CC(C)CN1CCc2nc(-c3ccccc3)c3c(c2CC1)COC(C)C3 (configuration not stated) ?
LT uptake inh: inconclusive

What do the screens show for `Cc1ccc(-n2ncc3c(=O)[nH]c(SCC(=O)N4CCCCC4)nc32)cc1`?
LT uptake inh: 17%; Prx2 Sm inh: >57

How did CCOCCn1c(CN2CCN(c3ccc(OC)cc3)CC2)nc2c1c(=O)n(C)c(=O)n2C do in these assays?
LT uptake inh: -6%; Prx2 Sm inh: >57

How did COc1cc2c(cc1OC)C(c1cc(OC)c(OC)c(OC)c1)NCC2 (configuration not stated) do in these assays?
LT uptake inh: 15%; Prx2 Sm inh: >57

The list is partial, so the mix of outcomes need not match the whole.
